HNF4A DNA FP: change in binding of human HNF4 alpha to DNA | P41235 | HNF4a-FITC DNA binding, fluorescence polarization, 1 h | activity change, % at 10 µM | 360,000 compounds, 0.3% hits | AID 1224865; in the data active means activity change above about 30%, passing the limit was not always enough;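 further: controls were the assay level and a saturating level of protein; the project sought stronger binding though the title names inhibitors; some compounds called inactive have numbers as strong as hits; positive values seem to mean higher polarization but the record does not say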
ALR inh: blocks human ALR sulfhydryl oxidase activity | AID 485317 | purified ALR, DTT oxidation, H2O2 HRP-luminol luminescence | inhibition, % (no concentration beside the values) | 290,000 compounds, 3.8% hits;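 active means mean and each replicate at 75% or more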;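 further: stock transfer was 7.5 nL into about 7.5 µL; 0% = neutral wells and 100% = wells with inactivated enzyme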
Target sequence (P55789 whole entry, looked up): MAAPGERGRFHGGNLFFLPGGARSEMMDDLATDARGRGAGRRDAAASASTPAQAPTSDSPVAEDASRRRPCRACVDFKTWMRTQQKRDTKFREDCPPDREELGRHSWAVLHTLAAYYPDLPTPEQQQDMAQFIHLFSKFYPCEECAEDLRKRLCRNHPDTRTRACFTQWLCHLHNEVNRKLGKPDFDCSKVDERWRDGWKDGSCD
LANA-H2A inh: blocks KSHV LANA binding to histone H2A/H2B | 320,000 compounds, 0.6% hits | cell-free LANA-H2A/H2B peptide, fluorescence polarization | inhibition, % (concentration not given with the values) | Q9QR71; in the data active means inhibition mostly above about 10%, no sharp cut-off; inactive means mostly below about 6.7%;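 further: stock transfer was 7.5 nL into about 10 µL; 0% = median of vehicle wells and 100% = median of positive control wells; one replicate is shown; the record names a cut of 25% in any replicate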
Ecoli growth: inhibitors of Escherichia coli growth. 330,000 compounds, 0.21% hits. AID 1053175. OD600 absorbance (test concentration not listed). OD600, 23 h; hits give low values;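 active means OD600 absorbance below the run mean of sample wells minus 3.6 SD, in any replicate, cut at about 0.56 in these data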;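 further: stock transfer was 300 nL into about 60 µL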
B2AR ag: activates human beta-2 adrenergic receptor causing internalization; Am2.2-beta2AR cells, FAP receptor internalization, flow cytometry; reference of the scale not given here; response, % (test concentration not listed); P07550; 340,000 compounds, 0.43% hits;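 active means response above a set limit, near 3 SD of response in nonfluorescent compounds, cut at about 42% in these data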;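 further: stock transfer was 100 nL into about 11 µL; a reference agonist was the positive control; negative values mostly stem from fluorescent compounds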
Target sequence (P07550 whole entry, looked up): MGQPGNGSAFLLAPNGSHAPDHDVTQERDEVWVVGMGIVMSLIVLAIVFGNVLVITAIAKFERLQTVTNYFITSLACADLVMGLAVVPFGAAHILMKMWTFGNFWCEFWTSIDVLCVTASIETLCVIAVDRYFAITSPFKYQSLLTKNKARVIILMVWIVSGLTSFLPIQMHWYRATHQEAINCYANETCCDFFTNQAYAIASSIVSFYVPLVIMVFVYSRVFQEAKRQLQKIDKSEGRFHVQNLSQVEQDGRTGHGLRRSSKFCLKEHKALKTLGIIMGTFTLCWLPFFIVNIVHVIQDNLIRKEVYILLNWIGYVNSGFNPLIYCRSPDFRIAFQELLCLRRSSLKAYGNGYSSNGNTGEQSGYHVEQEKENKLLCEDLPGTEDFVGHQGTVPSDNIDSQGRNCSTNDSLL
UCH37 DUB inh: blocks the human deubiquitinase UCH37 | Q9Y5K5 | purified proteasome/UCH37, Ub-AMC cleavage fluorescence | inhibition, % (concentration not given with the values) | 330,000 compounds, 0.33% hits | AID 588478;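 active means mean of two replicates above 20%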;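 further: 0% = compound-free wells with enzyme and 100% = wells lacking proteasome; stock transfer was 100 nL into about 20 µL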
Target sequence (Q9Y5K5 whole entry, looked up): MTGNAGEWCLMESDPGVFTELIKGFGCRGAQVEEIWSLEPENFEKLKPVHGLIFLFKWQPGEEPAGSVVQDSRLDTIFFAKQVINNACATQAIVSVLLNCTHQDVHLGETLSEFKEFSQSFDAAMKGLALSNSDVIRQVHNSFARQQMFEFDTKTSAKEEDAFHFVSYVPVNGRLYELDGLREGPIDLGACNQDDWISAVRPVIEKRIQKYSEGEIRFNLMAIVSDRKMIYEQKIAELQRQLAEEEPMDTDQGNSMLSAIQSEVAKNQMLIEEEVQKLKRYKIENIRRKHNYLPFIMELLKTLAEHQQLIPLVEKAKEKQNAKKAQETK
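Signal – fluorescence, ex 355 nm, em 460 nm · System – Proteasome-bound UCH37 · Input – 0.15 nM proteasome as dispensed · Timing – 30 min preincubation with enzyme, 25 min cleavage at room temperature · Read-out basis – percent inhibition of cleavage signal versus uninhibited and no-proteasome wells · Medium – Tris-HCl pH 7.4 with ATP-MgCl2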
FGF22 binding: shifts melting point of recombinant human FGF22. 340,000 compounds, 1.5% hits. Q9HCT0. calls only at 9.99 µM. recombinant FGF22 thermal shift, SYPRO orange fluorescence; percent of sucrose octasulfate shift, DMSO zero;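 active means melting point raised past a set limit in the mean and every replicate; three in four hits are not shown here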
Active calls of the source: *; i = inactive; . = no result given. An excerpt; the hit share may differ from the screen's.

SMILES	HNF4A DNA FP	ALR inh	LANA-H2A inh	Ecoli growth	B2AR ag	UCH37 DUB inh	FGF22 binding
COc1ccc(CCNC(=O)Cn2nc(C)c3c(C)n(-c4ccccc4)nc3c2=O)c(OC)c1	0.5	-8	-0.5	0.67	0	-0.2	i
COc1ccc([N+](=O)[O-])cc1C1NN=C(c2cccc3ccccc23)S1 (centres undefined)	-1.0	-2	-0.2	.	-2	.	.
O=C(CNC(=O)c1ccco1)OCc1ccc(C(=O)Oc2ccccc2)cc1	-5.5	-2	-5.6	0.73	-1	-0.5	.
O=C(NCc1ccccc1F)C1CCCN(C(=O)Nc2ccc(F)cc2)C1 (centres undefined)	1.6	2	13	0.6	4	-0.4	i
CN1CCN(CCCNC(=O)CCc2nnc3n(Cc4ccccc4Cl)c(=O)c4ccccc4n23)CC1	-0.4	3	-0.4	0.74	-18	4.7	i
CCOC(=O)CSc1nc(-c2ccccc2)nc2ccccc12	-0.1	5	-0.3	0.65	0	2.5	.
CC(C)CCNC(=O)CNC(=S)N(Cc1ccccc1)Cc1cccnc1	3.5	-2	-0.9	0.66	-10	3.3	.
Cc1csc(=O)n1CCC(=O)OCC(=O)N(CC(C)C)c1c(N)n(Cc2ccccc2)c(=O)[nH]c1=O	4.0	0	-2.4	0.72	-4	3.9	i
O=C(c1cc(Br)c(Br)s1)N1CCN(C/C=C/c2ccccc2)CC1	0.9	.	-1.2	0.68	4	0.1	.
CC(NC(=O)c1ccc(CS(=O)(=O)c2ccc(Cl)cc2)o1)c1ccc2c(c1)OCCO2 (centres undefined)	2.7	-2	-0.5	0.66	7	1.7	i
COc1ccc(CS(=O)(=O)CC2(O)CCN(C(=O)c3cccc(C(F)(F)F)c3)CC2)cc1	0.2	.	-3.2	0.67	3	5.1	i
CCC/C=C1/CCCOC(C(=O)NCCNCCO)(C(F)(F)F)C1 (centres undefined)	1.4	1	1.1	.	3	2.9	.
O=C(CSc1nnc2ccccn12)NNC(=O)c1cccc(Cl)c1	-1.3	.	-2.5	0.69	2	0.8	i
O=C1/C(=C/c2cccs2)SC(=S)N1c1cccc(O)c1	2.0	-2	-1.0	0.66	5	5.5	i
COc1ccc(C(C)=O)cc1CC(=O)Nc1ccccc1-c1ccccc1	1.4	-26	-1.3	.	-12	.	i
O=C(O)CC(c1ccc(Cl)cc1)N1Cc2ccccc2C1=O (centres undefined)	4.3	10	1.3	0.67	1	2.7	i
O=C(CCc1ccccc1)NNC(=O)c1ccccc1F	2.7	3	-2.8	0.71	-2	3.0	i
CC(=O)c1cc(CN2CCN(CCc3ccccc3)C(CCO)C2)cs1 (centres undefined)	4.6	-2	-0.7	0.67	-3	-0.7	i
O=C(COC(=O)CNC(=O)c1ccc(Cl)c([N+](=O)[O-])c1)NNC(=O)c1cccs1	0.5	.	2.6	0.64	2	4.0	.
COc1ccc([N+](=O)[O-])cc1-c1nc2ccccc2nc1-c1ccccc1	0.0	-10	-2.4	0.69	-10	-0.9	i
COc1ccc(CC(=O)N/N=C/c2cccs2)cc1OC	3.4	-1	-2.6	.	3	.	i
O=C(CSc1nc2ncccc2[nH]1)NCCc1ccccc1	-0.5	-45	1.5	0.67	-9	3.2	i
O=C(O)c1ccc(COCC(F)(F)F)cc1	2.2	0	4.1	0.65	1	1.1	.
Cc1ccc(/C(N)=N/OC(=O)C23CC4CC(CC(C4)C2)C3)cc1	-3.5	-1	1.5	0.68	-1	0.0	.
COC(=O)c1cc(C)nc(Sc2ccccc2N)n1	.	16	2.2	.	-1	.	i
O=C(O)C1CCCN(CCC=C(c2ccccc2)c2ccccc2)C1 (centres undefined)	5.1	-3	0.2	0.71	0	-0.2	i
O=C(CN1CCc2ccccc2C1)Nc1ccc(F)cc1	-1.5	6	0.2	0.69	3	4.0	i
Cc1ccc(C)c(C(=O)N(C)CC(=O)Nc2ccccc2C(F)(F)F)c1	4.2	8	-4.4	0.7	-1	-4.0	i
O=C1N[C@@H](Cc2cnc[nH]2)C(=O)N2CCC[C@@H]12	-0.5	1	-3.9	.	-4	2.1	i
Cc1cn(S(=O)(=O)c2ccccc2[N+](=O)[O-])cn1	2.6	-6	-0.8	0.67	4	3.6	i
CCOCCCNC(=O)CSc1ccccc1	-1.3	-5	5.8	0.67	-3	-0.6	.
Cn1c(SCC(=O)NCc2ccc3c(c2)OCO3)nnc1-c1cccs1	3.3	-23	5.9	0.67	-7	2.5	.
Cc1ccccc1C(=O)NC(=S)Nc1ncccn1	4.2	-18	-3.9	0.69	-2	1.1	i
Cc1cccc(C)c1NC(=O)CN(C)CC(=O)Nc1ccccc1Br	-0.7	-2	-4.8	0.77	1	0.8	.
COc1ccc(-c2cc([C@H]3[C@@H]4C=CCC[C@@]4(C)C(=O)N3Cc3ccccc3)ccc2F)cc1OC	4.7	-6	-0.8	.	14	-1.3	i
CCC(=O)OCCn1c(=O)c2ccccc2c2ccccc2c1=O	-1.0	26	-1.3	0.69	-6	0.6	i
Cc1ccc(C(=O)NCC(=O)OCCOc2ccccc2Cl)cc1	-2.5	1	2.8	0.59	14	-0.3	i
COc1ccc(CCNC(=O)CSc2nnc(-c3cccc(F)c3)o2)cc1OC	-2.4	-4	0.4	0.69	6	3.6	.
CN1CCN(c2ccc(S(=O)(=O)N3CCCCC3)cn2)CC1	1.1	2	12	0.68	9	-0.1	.
C=CCc1ccccc1OCC(=O)O	-4.7	1	4.5	0.65	-1	3.2	i
CC/C(=C/c1sc2ccccc2[n+]1CC)SC	1.4	13	0.7	0.66	4	8.0	.
CCOC(=O)c1cc(C#N)c(Nc2ccccc2OC)nc1C(F)(F)F	-3.1	-2	-3.3	0.66	0	-21	i
Cc1ccccc1N(CC(=O)NC1CCCC1)C(=O)CS(=O)CC(=O)Nc1ccc2c(c1)OCO2 (centres undefined)	0.9	.	1.7	0.69	-6	4.3	.
O=C(Nc1cccc(F)c1)NC1CCCc2ccccc21 (centres undefined)	6.6	-1	2.6	.	3	.	i
COc1ccc(OCC(=O)OCC(=O)NC2CCCC2)cc1	3.2	-16	-0.6	0.71	-3	4.5	i
CCOc1ccc2nc(SCC(=O)NC3CC3)sc2c1	1.5	1	0.4	0.67	8	1.6	i
CC(=O)c1cnc2c(-c3ccccc3)c(C)nn2c1C	1.3	1	-1.8	0.71	-5	2.7	.
O=C(NCc1ccc2c(c1)OCO2)C1COc2ccccc2O1 (centres undefined)	4.0	-16	-0.9	0.73	1	4.6	.
CCOC(=O)C1CCCN(CC(=O)Nc2c(F)c(F)c(F)c(F)c2F)C1 (centres undefined)	-1.8	-2	-5.2	0.74	-1	1.2	.
CCC(=O)Nc1ccc(S(=O)(=O)NCC2CCCO2)cc1 (centres undefined)	1.2	-10	-1.5	0.72	0	-0.2	.
O=C(NCc1cccc(F)c1)C1CCC(=O)N(C2CC2)C1 (centres undefined)	2.3	-2	-1.3	0.68	1	-1.8	i
CCOc1ccccc1Nc1nc(N)nc(CN(C)C2CCCCC2)n1	-1.6	-2	1.2	0.73	0	4.7	.
Cc1ccc(NC(=O)CCc2c(C)nn(-c3ccc(N4CCCCC4)nn3)c2C)cc1	-2.8	2	3.7	0.71	-9	4.2	i
O=C(Nc1ccc2nc3n(c(=O)c2c1)CCCCC3)c1ccccn1	0.2	46	2.4	0.76	-11	8.5	i
CC(C)(CNC(=O)c1cc2ccccc2o1)N1CCOCC1	-0.1	-4	2.1	0.7	-1	0.4	.
Cn1c(CCC(N)=O)nnc1SCC(=O)Nc1ccccc1C(=O)NC1CC1	-3.1	-1	5.1	0.65	9	1.6	i
CC(C)c1ccc(S(=O)(=O)N2CCN(CC(=O)c3ccc(O)c(O)c3)CC2)cc1	-37	99*	1.1	.	-3	.	i
CC(C)Oc1ccc(C(=O)NC(=S)Nc2ccc(Cl)c(C(=O)O)c2)cc1	-3.1	21	-3.7	0.73	8	1.5	i
Cc1ccc(S(=O)(=O)NCCC(=O)N(C)Cc2cccs2)cc1	3.0	-9	-8.6	0.7	4	1.4	i
O=C(CN(C(=O)CCC(=O)Nc1nccs1)c1ccccc1F)NCc1ccc(F)cc1	3.2	1	-2.6	0.71	-2	-0.3	i

Following part
SMILES	HNF4A DNA FP	ALR inh	LANA-H2A inh	Ecoli growth	B2AR ag	UCH37 DUB inh	FGF22 binding
Cc1ccc(NC(C)C(=O)N/N=C/c2c[nH]c3ccccc23)cc1 (centres undefined)	1.4	57	-2.6	.	0	.	i
C=C(C(=O)O)C(CCCCCC)C(=O)O (centres undefined)	-0.3	-4	-1.7	0.68	-1	1.1	i
O=C(CS(=O)(=O)Cc1ccccc1)NCc1ccc2c(c1)OCO2	2.3	-4	-6.5	0.69	3	1.5	.
Cc1ccc(C(=O)Oc2cccnc2)cc1[N+](=O)[O-]	-5.1	57	14	0.69	1	4.0	i
O=C(c1ccc(C(=O)N2CCN(c3ccccc3F)CC2)nc1)N1CCN(c2ccccc2F)CC1	-1.3	.	.	0.72	-8	2.6	i
CCOc1ccc(NC(=O)CSc2nnc(C)n2Cc2ccccc2)cc1	-0.6	-2	-2.3	0.77	-3	3.9	.
O=C(c1ccc(S(=O)(=O)Nc2cccc(C(F)(F)F)c2)cc1)N1CCC1	-2.3	2	0.5	0.74	3	-0.3	i
CCOc1cc(N2CCOCC2)c(OCC)cc1NC(=O)COc1cccc(Cl)c1	3.0	-15	-1.0	0.69	2	4.5	i
Cn1c(=O)c2sccc2n(Cc2ccccc2)c1=O	-0.5	-6	-2.8	0.62	-2	3.1	i
O=C(c1ccccc1)N1CCN(S(=O)(=O)N2CCCCC2)CC1	2.9	-7	-4.1	0.7	-5	-1.3	.
Cc1cccc(C(=O)O[C@@H]2[C@H](Cc3ccccc3)NS(=O)(=O)[C@H]3C[C@@H]4C=C[C@]23O4)c1	-1.3	-2	-4.1	.	-3	-1.2	i
CCOC(=O)Cn1c(=O)n(Cc2ccc(OC)cc2)c(=O)c2cccnc21	1.0	5	1.3	0.69	-3	1.3	i
CC[C@@H](C)[C@@H]1CN([C@@H](CN2CCC[C@H]2CN2C(N)=NC[C@H]2C(C)C)C(C)C)C(=N)N1CCCC1CCCC1	4.4	0	.	0.63	1	5.4	i
CC1CCN(c2[nH]c(=S)c(C#N)c3c2CCCC3)CC1	-0.8	-3	-4.2	0.69	-11	5.0	.
CCCCN(CC)CCNC(=O)CCC(=O)Nc1ccc2nc(N3CCN(C)CC3)cc(C)c2c1	0.7	0	-1.3	0.69	2	-120	i
C/C(=N\NS(=O)(=O)c1ccc(C)cc1)c1ccc(Br)s1	1.9	21	-1.9	.	1	.	.
Cc1nn(C)c(N)c1C(O)(c1nccn1C)C(F)(F)F (centres undefined)	2.4	-12	-3.5	0.7	-6	1.1	.
C=CCNC(=O)CSc1nnc(-c2ccncc2)n1CCc1ccccc1	-0.8	-2	-4.6	0.69	0	0.2	.
CC1(c2nnc(-c3ccccc3)o2)CC(c2ccccc2)=NO1 (centres undefined)	3.5	5	2.4	0.62	-4	-1.6	i

Some of these compounds in order of the B2AR ag value, lowest first:
SMILES	HNF4A DNA FP	ALR inh	LANA-H2A inh	Ecoli growth	B2AR ag	UCH37 DUB inh	FGF22 binding
O=C(c1ccc(C(=O)N2CCN(c3ccccc3F)CC2)nc1)N1CCN(c2ccccc2F)CC1	-1.3	.	.	0.72	-8	2.6	i
CC(C)c1ccc(S(=O)(=O)N2CCN(CC(=O)c3ccc(O)c(O)c3)CC2)cc1	-37	99*	1.1	.	-3	.	i
Cc1ccccc1C(=O)NC(=S)Nc1ncccn1	4.2	-18	-3.9	0.69	-2	1.1	i
CCOC(=O)C1CCCN(CC(=O)Nc2c(F)c(F)c(F)c(F)c2F)C1 (centres undefined)	-1.8	-2	-5.2	0.74	-1	1.2	.
Cc1ccc(NC(C)C(=O)N/N=C/c2c[nH]c3ccccc23)cc1 (centres undefined)	1.4	57	-2.6	.	0	.	i
COc1ccc(CS(=O)(=O)CC2(O)CCN(C(=O)c3cccc(C(F)(F)F)c3)CC2)cc1	0.2	.	-3.2	0.67	3	5.1	i
Cc1ccc(C(=O)NCC(=O)OCCOc2ccccc2Cl)cc1	-2.5	1	2.8	0.59	14	-0.3	i

Screening results deposited in PubChem BioAssay by several laboratories.
